# A1 inh – caspase 3/7 activation in MEF A1-2A-BIM cells, primary screen, A1 inhibitor project, cell-based, luminescence, HTS. Caspase-Glo 3/7 luminescence, 3 h; percent of clofoctol response, vehicle zero. caspase activation, % (test concentration not listed). 330,000 compounds, 0.066% hits;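 active = over half of replicate activation scores above 10%, or exactly half above 10 with the replicate mean above 10; inconclusive = replicate mean below 10 yet half the replicates above 10; inactive = over half of replicates below 10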;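 also: wells of about 30 µL received 50 nL stock; many hits fall short of the cut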
# Beta2AR agonist – beta2AR agonists driving receptor internalization, primary screen, cell-based, FAP fluorogen, flow cytometry; Beta-2 adrenergic receptor (Homo sapiens), P07550; Am2.2-beta2AR cells; reference of the scale not given here; response, % (no concentration beside the values); 340,000 compounds, 0.43% hits;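 active = response above a set limit, near 3 SD of response in nonfluorescent compounds, cut at about 42% in these data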;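 also: stock transfer was 100 nL into about 11 µL; a reference agonist was the positive control; negative values mostly stem from fluorescent compounds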
# Vif A3G – inhibitors of Vif binding to APOBEC3G peptide, primary screen, biochemical, TR-FRET, GST-Vif 1-94, biotin-A3G peptide, dose response retest (AID 1117319). TR-FRET GST-Vif / biotin-A3G peptide binding; higher % means a stronger effect; test concentration not given here; strong numbers were not always called active. inhibition, %, or IC50 in µM where a hit was titrated. 260,000 compounds, 0.57% hits;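 active = above the screen mean plus three standard deviations and confirmed in dose response; inconclusive = results disagree or hit not tested in dose response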;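 also: Vif residues 1-94 fused to GST binding biotinylated APOBEC3G peptide 110-148; 0% = full assay without inhibitor and 100% = GST in place of GST-Vif; retest series ran down from 100 µM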
# LANA-H2A inh – blockers of LANA interaction with H2A/H2B – biochemical, FP readout, HTS, primary screen; Protein LANA1 (Human herpesvirus 8 type P (isolate GK18)), Q9QR71; cell-free LANA-H2A/H2B peptide, fluorescence polarization; inhibition, % (concentration not given with the values); 320,000 compounds, 0.6% hits; AID 2629, 2010; in the data active = inhibition mostly above about 10%, no sharp cut-off; inactive = mostly below about 6.7%;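 also: stock transfer was 7.5 nL into about 10 µL; 0% = median of vehicle wells and 100% = median of positive control wells; one replicate is shown; the record names a cut of 25% in any replicate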
# UCH37 DUB inh – inhibitors of human UCH37 deubiquitinase, primary screen, biochemical, Ub-AMC cleavage, fluorescence; 330,000 compounds, 0.33% hits; inhibition, % (no concentration beside the values); AID 588478, 2011; purified proteasome/UCH37;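 active = mean of two replicates above 20%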;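 also: 0% = compound-free wells with enzyme and 100% = wells lacking proteasome; stock transfer was 100 nL into about 20 µL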
# Target sequence (Q9Y5K5 whole entry, looked up): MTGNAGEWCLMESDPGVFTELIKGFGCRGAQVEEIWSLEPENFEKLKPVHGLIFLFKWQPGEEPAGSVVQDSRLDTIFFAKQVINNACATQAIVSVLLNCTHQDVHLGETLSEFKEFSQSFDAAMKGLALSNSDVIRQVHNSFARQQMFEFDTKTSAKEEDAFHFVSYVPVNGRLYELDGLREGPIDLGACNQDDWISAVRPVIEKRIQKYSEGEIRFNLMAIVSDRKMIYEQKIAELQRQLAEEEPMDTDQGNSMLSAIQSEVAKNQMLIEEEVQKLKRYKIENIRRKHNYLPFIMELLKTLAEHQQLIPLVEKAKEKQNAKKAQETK
#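 Test system – human UCH37 enzyme supplied as purified proteasome complex · Incubation – 30 min preincubation with enzyme, 25 min cleavage at room temperature · Detection – AMC fluorescence from Ub-AMC cleavage, excitation 355 nm, emission 460 nm · Benchmarks – no-proteasome wells (full inhibition) and compound-free wells (no inhibition)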
# Ecoli growth – E. coli growth inhibition, primary screen, OD600; OD600 absorbance (test concentration not listed); 330,000 compounds, 0.21% hits; Escherichia coli growth, 23 h; hits give low values;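 active = OD600 absorbance below the run mean of sample wells minus 3.6 SD, in any replicate, cut at about 0.56 in these data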;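 also: stock transfer was 300 nL into about 60 µL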
# HNF4A DNA FP – change in binding of human HNF4A to DNA, primary screen, biochemical, fluorescence polarization, FITC-DNA. activity change, % at 10 µM. 1 h. Hepatocyte nuclear factor 4-alpha (Homo sapiens), P41235. 360,000 compounds, 0.3% hits. AID 1224865, 2016; in the data active = activity change above about 30%, passing the limit was not always enough;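 also: controls were the assay level and a saturating level of protein; the project sought stronger binding though the title names inhibitors; some compounds called inactive have numbers as strong as hits; positive values seem to mean higher polarization but the record does not say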
# Target sequence (P41235 whole entry, looked up): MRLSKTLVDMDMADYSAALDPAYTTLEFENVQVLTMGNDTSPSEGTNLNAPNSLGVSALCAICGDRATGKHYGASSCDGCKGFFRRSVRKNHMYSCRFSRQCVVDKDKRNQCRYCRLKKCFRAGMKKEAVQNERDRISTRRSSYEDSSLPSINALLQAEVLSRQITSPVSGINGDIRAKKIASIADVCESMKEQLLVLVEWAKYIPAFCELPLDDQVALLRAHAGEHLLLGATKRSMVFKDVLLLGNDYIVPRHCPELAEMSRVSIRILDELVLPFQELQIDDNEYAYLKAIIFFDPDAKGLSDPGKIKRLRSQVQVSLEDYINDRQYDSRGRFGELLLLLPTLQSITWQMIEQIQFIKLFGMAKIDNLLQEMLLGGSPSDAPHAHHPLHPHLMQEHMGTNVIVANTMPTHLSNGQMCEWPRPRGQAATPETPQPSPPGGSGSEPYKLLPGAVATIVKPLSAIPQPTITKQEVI
# * marks the source's active call; other numbers are inactive results; i = inactive; ? = inconclusive; nt = not tested or not shown; & = joins results of further samples. Outcome played no part in choosing rows. Share with any hit: about 2.1%.
SMILES,A1 inh,Beta2AR agonist,Vif A3G,LANA-H2A inh,UCH37 DUB inh,Ecoli growth,HNF4A DNA FP
O=C(c1cc(-c2ccc(Cl)s2)nc2ccccc12)N1CCOCC1,0.2,1.4,-14.5%,5.3,i,0.657,2.6
N#Cc1c(NC(=O)c2ccncc2)sc2c1CCC2,0.8,-3.1,?,-4.7,9.8,0.729,-5.2
CCCCc1ccc(NC(=O)c2ccc(N(C)S(C)(=O)=O)cc2)cc1,-1.0,6.7,?,3.4,1.0,0.762,5.4
CC1=C(C(=O)Nc2ccc(Cl)cc2)C(c2cccs2)n2nnnc2N1 (stereo unspecified),-0.4,-5.7,1.5%,0.8,6.9,0.699,-0.3
O=C(C1CCC1)N1CCc2cc(S(=O)(=O)NCC3COc4ccccc4O3)ccc21 (stereo unspecified),0.6,-18.5,-3.0%,3.3,1.5,0.743,-1.6
COc1ncnc2c1sc1nc(-c3ccccc3)c3c(c12)CCCC3,2.5,-13.6,nt,0.0,4.5,0.718,-0.8
CC1(c2ccccc2)NC(=O)N(CC(=O)N2CCN(S(=O)(=O)c3cccs3)CC2)C1=O (stereo unspecified),0.6,-0.7,18.9%,-3.2,0.9,0.654,-3.2
O=C(O)c1ccc(NS(=O)(=O)c2ccc(N3CCCC3)c([N+](=O)[O-])c2)cc1,0.0,-9.2,1.6%,-1.5,0.8,0.702,0.3
COc1ccccc1N1CCN(CCCCOc2cccc3ccccc23)CC1,0.2,15.3,25.1%,0.9,5.7,0.662,2.8
COc1ccc2c(c1)[C@H]1[C@H](CO2)[C@H](c2ccccc2)[C@]2(C)C(=O)Nc3ccccc3C(=O)N12,-0.3,-7.1,nt,-1.1,0.8,nt,-7.3
Cc1cc(C)c2nc(SCc3ccc([N+](=O)[O-])cc3)nc(C)c2c1,0.1,6.2,7.6%,6.3,3.1,0.743,2.0
c1ccc(Cc2nnc(-c3ccccc3)o2)cc1,-1.3,2.1,8.5%,1.2,1.9,0.708,-1.1

# Quoted at random: 2 entries already listed, in no set order.
SMILES,A1 inh,Beta2AR agonist,Vif A3G,LANA-H2A inh,UCH37 DUB inh,Ecoli growth,HNF4A DNA FP
CC1=C(C(=O)Nc2ccc(Cl)cc2)C(c2cccs2)n2nnnc2N1 (stereo unspecified),-0.4,-5.7,1.5%,0.8,6.9,0.699,-0.3
O=C(c1cc(-c2ccc(Cl)s2)nc2ccccc12)N1CCOCC1,0.2,1.4,-14.5%,5.3,i,0.657,2.6

# Further entries follow:
SMILES,A1 inh,Beta2AR agonist,Vif A3G,LANA-H2A inh,UCH37 DUB inh,Ecoli growth,HNF4A DNA FP
COc1ccc2c(c1OC)C(=O)N1c3ccccc3C(=O)N(c3ccc(F)cc3)C21 (stereo unspecified),0.6,13.5,-4.1%,3.9,1.6,0.711,3.7
CCOC(=O)C1=C(C)NC(=S)N(C=O)C1c1ccccc1 (stereo unspecified),-0.2,-2.4,5.8%,-2.9,3.8,0.678,-2.5
C/C(Cn1nnc([N+](=O)[O-])n1)=N\NC(=O)c1ccncc1,-0.4,-5.6,-1.4%,-0.5,nt,nt,2.7
Cc1c(Cl)cccc1NC(=S)N1CCN(C(=O)C2CCCO2)CC1 (stereo unspecified),1.8,3.3,-3.3%,-3.0,5.1,0.665,1.1
C/C(=N/N=C/c1ccc(N(C)C)cc1)c1ccccc1,-8.7,1.0,6.9%,4.4,nt,nt,1.6
COc1ccccc1NS(=O)(=O)c1cc(NC(=O)c2ccccc2F)ccc1N1CCOCC1,-0.2,-5.5,7.7%,2.4,-1.1,0.729,3.3
CCN(CC)S(=O)(=O)c1ccc(Cl)c(NC(=O)COC(=O)/C=C/c2cc(OC)c(OC)c(OC)c2)c1,-0.5,nt,?,1.2,-23.1,0.711,0.9
CC/C(=N/O)C(=O)c1ccc(Br)cc1,0.1,-6.2,-4.7%,1.1,nt,nt,4.5
COc1ccc(C2c3c(oc4ccccc4c3=O)C(=O)N2c2ccccn2)cc1 (stereo unspecified),-1.6,-20.7,13.6%,5.3,2.9,0.794,1.5
COc1cc(C2C(C(=O)/C=C/c3ccccc3)=C(O)C(=O)N2c2ccccn2)ccc1O (stereo unspecified),-1.3,-7.8,nt,1.8,9.3,0.675,39.6*
CCCC(=O)Nc1sc(C)c(-c2ccc(OC)cc2)c1C#N,-0.2,4.4,27.0%,nt,2.0,0.701,-1.6
CCO[C@H]1OC(C(=O)NC2CC2)=C[C@@H](C)[C@@H]1CCCO,-0.9,4.0,31.1%,2.4,0.3,nt,1.9
Cc1ccc(NS(=O)(=O)c2ccc3[nH]c(=O)[nH]c3c2)cc1,2.2,-5.0,-2.7%,-2.4,4.1,0.67,4.0
COc1ccc(-c2cc(C(F)(F)F)n3nc(C(=O)Nc4cc(C)on4)cc3n2)cc1OC,-0.6,-3.2,-2.8%,0.1,-91.5,0.834,-5.9
COc1ccc(Br)cc1CN(C)C(=O)c1cc(Cl)c2c(c1)OCCO2,0.9,1.0,?,7.5,1.6,0.696,0.6
Cc1ccc(-c2cc(C(=O)NCc3ccco3)no2)cc1,-2.7,5.3,-3.2%,2.6,1.0,0.659,-1.0
CCc1cc2c(=O)n(-c3ccccc3)c(=S)[nH]c2s1,-0.1,17.4,18.6%,-0.4,5.3,0.734,-0.1
COc1cc(C(=O)NCc2nnc(SCC(=O)NC3CCCC3)o2)cc(OC)c1OC,1.0,-3.0,nt,3.0,0.0,0.607,1.2
CCOc1ccccc1NS(=O)(=O)c1cccc2nsnc12,-1.2,-9.8,?,-9.8,1.6,0.647,2.0
O=[N+]([O-])c1ccc(Cl)c(S(=O)(=O)N2CCCCCC2)c1,-0.1,-13.4,-2.7%,-1.5,-0.1,0.702,-2.7
COc1cc(OC)c(C2N(c3ccc(Cl)c(Cl)c3)C(=O)C3CCCN32)cc1OC (stereo unspecified),0.4,-1.4,?,-3.6,0.0,0.659,1.3
O=C(CN(C(=O)c1csnn1)c1ccc(F)c(Cl)c1)NCc1ccc(F)cc1,-0.4,3.1,nt,-0.8,2.2,0.656,-1.4
CC(C)(C)C1=CC(=O)C(N2CCOCC2)=CC1=O,0.7,-0.2,-2.9%,2.3,0.3,0.662,0.5
COc1cc(OC)c(OC)cc1CNc1nnnn1C,1.4,-1.7,nt,3.2,1.1,0.649,1.3
O=C(O)c1cc(N2C(=O)C=CC2=O)cc(N2C(=O)C=CC2=O)c1,nt,-0.4,-12.2%,nt,-0.7,0.659,-31.6
CS(=O)(=O)c1ccc(Cl)c(NC(=O)COC(=O)CNC(=O)c2ccc(Br)o2)c1,-0.8,8.7,?,0.2,4.2,0.658,-1.1
COc1cccc(-n2cc3c(=O)n(C)c(=O)n(C)c3c2)c1,-0.6,-9.7,9.4%,-4.1,-3.0,0.77,3.6
Cc1nn2cc(-c3ccccc3)nc2s1,-0.7,-0.9,-0.1%,-3.8,6.6,0.689,2.6
C=CCOc1cccc(C2C(C(=O)c3ccco3)=C(O)C(=O)N2Cc2ccncc2)c1 (stereo unspecified),0.0,-2.1,21.2%,-2.1,9.9,0.736,1.0
COC(=O)c1ccccc1NC(=O)N[C@@H](C)C(=O)OC,0.2,12.3,-3.2%,-0.4,-3.9,0.693,-0.3
O=C(COc1ncnc2scc(-c3ccccc3)c12)NCCN1C(=O)CSC1=O,-0.1,nt,?,15.6,4.3,0.702,nt
Cc1ccc(NS(=O)(=O)c2ccc3c(c2)n(C)c(=O)n3C)cc1C,-0.4,-1.1,nt,2.2,-0.5,0.712,3.2
O=C(Cn1[nH]c(=O)c2ccccc2c1=O)NCc1cccnc1,-0.1,-1.6,-8.0%,-1.6,4.8,0.695,3.6
CC(=O)Nc1nc(-c2ccccc2)nc(C)c1C(C)=O,2.0,-1.7,-1.4%,2.5,17.0,0.693,-3.5
c1ccc(-n2nnc(-c3nccs3)n2)cc1,-12.2,-2.0,nt,2.0,1.5,0.659,-1.5
CC(=O)c1cccc(S(=O)(=O)N(Cc2cc3cc4c(cc3[nH]c2=O)OCCO4)CC2CCCO2)c1 (stereo unspecified),0.2,-8.3,-5.3%&-10.6%,-4.0,-5.2,0.683,0.2
Cc1cc(C(=O)N2CCN(c3ccc([N+](=O)[O-])cc3)CC2)n[nH]1,-1.4,5.5,nt,-1.4,8.0,0.67,1.8
Cc1ccc(C(=O)OCC(=O)NCCc2ccccc2)cc1C,-1.0,-7.1,-9.1%,-0.1,-1.2,0.685,-0.7
Cc1cc(C)n(C(=O)c2ccc([N+](=O)[O-])cc2N)n1,-0.1,-2.3,6.8%,1.0,2.1,0.653,-2.4
O=C(CCNS(=O)(=O)c1ccccc1C(F)(F)F)N1CCN(C(c2ccccc2)c2ccccc2)CC1,0.3,12.2,4.8%,-0.9,0.2,0.639,-5.3
CCc1ccccc1NC(=O)COC(=O)C1CC(=O)N(c2ccc(F)cc2)C1 (stereo unspecified),1.6,2.4,4.7%,-5.2,4.9,0.698,0.1
O=S(=O)(Nc1ccc(C(F)(F)F)cn1)c1ccccc1,0.5,3.3,?,-3.7,0.5,0.667,4.0
Nc1ncc(-n2cncn2)c(-c2ccccc2)n1,0.3,-3.5,-0.2%,3.7,1.5,0.665,-0.5
Cc1cccc(C(=O)NC(C)C(c2cccs2)N2CCOCC2)c1 (stereo unspecified),1.1,-7.7,0.5%,4.5,-1.4,0.682,3.8
CC(C)c1ccc(NC(=O)CN2C(=O)NC3(CCCC3)C2=O)cc1,0.1,0.7,nt,-4.9,4.7,0.69,-0.9
CCN[C@H]1C[C@H](C)S(=O)(=O)c2sc(S(N)(=O)=O)cc21,1.2,-0.6,nt,3.3,3.5,nt,-1.9
Cc1ccc(NC(=O)COC(=O)C2CCN(c3ccc(C(F)(F)F)cn3)CC2)cc1C,0.0,4.3,-4.8%,-0.9,-1.8,0.707,-2.5
COc1ccccc1/C=N/NC(=O)CSc1cc(C)nc2ccccc12,0.2,-9.9,1.8%,4.6,nt,nt,0.4
CS(=O)(=O)N(CC(=O)N1CCCCCC1)c1cccc(Cl)c1Cl,0.3,0.6,nt,5.3,1.4,0.689,0.2
Cc1ccccc1NC(=O)OCc1cn(-c2ccc(Cl)cc2)nn1,0.6,2.9,-0.5%,-1.2,2.2,0.741,0.6
CC(C)(C)c1ccccc1OCC(=O)NCCC(=O)O,0.5,6.4,2.4%,3.5,0.6,0.676,-1.0
CC(C)C[C@H](NC(=O)c1nc[nH]c1C(=O)NC1CCNCC1)C(=O)OC(C)(C)C,1.2,-2.2,nt,0.8,-6.0,0.736,0.7
CCOc1ccc(N2CC(C(=O)Nc3ccc(S(=O)(=O)N4CCCCC4)cc3)CC2=O)cc1 (stereo unspecified),0.8,-4.4,2.9%,-6.5,3.0,0.685,1.1
CCOC(=O)C1CCN(C/C=C/c2ccccc2)CC1,1.5,5.0,nt,-1.9,2.8,0.7,-3.7
COc1ccc(S(=O)(=O)N2CCN(CCOc3ccccc3Cl)CC2)cc1OC,0.5,1.9,4.8%,2.0,2.8,0.703,0.3
CN(C(=O)COc1ccc(Br)cc1Cl)C1CCCCC1,-1.1,-5.2,-6.4%,3.7,2.7,0.695,-0.1
OCC[C@@H]1C[C@H](O)[C@@H](O)[C@]2(Cc3ccccc3CO2)O1,0.3,3.5,nt,-1.8,1.4,nt,-0.3
CCOc1ccc(N(CC(=O)NCc2ccccc2)C(=O)Cn2nnc(-c3ccc(C)o3)n2)cc1,-0.3,-2.1,14.2%,2.3,5.0,0.69,2.4
O=C(COc1ccccc1)Nc1ncn[nH]1,-0.4,1.1,nt,-4.0,-1.1,0.665,4.5
